VDR inh: blocks the human vitamin D receptor | VDR-SRC2-3 peptide fluorescence polarization, 2 h | AID 504847 | Potency, µM, inactives show max response, negative = inhibition, hits mostly inhibitors | actives 0.93% (n = 400,000); active means well fitted inhibition curve with a large enough effect; inconclusive means small, poorly fitted or top-dose-only effect, or another doubt; inactive means no such curve, though single readings can be large or run the other way; further: series mostly up to about 120 µM
Target sequence (P11473 whole entry, looked up): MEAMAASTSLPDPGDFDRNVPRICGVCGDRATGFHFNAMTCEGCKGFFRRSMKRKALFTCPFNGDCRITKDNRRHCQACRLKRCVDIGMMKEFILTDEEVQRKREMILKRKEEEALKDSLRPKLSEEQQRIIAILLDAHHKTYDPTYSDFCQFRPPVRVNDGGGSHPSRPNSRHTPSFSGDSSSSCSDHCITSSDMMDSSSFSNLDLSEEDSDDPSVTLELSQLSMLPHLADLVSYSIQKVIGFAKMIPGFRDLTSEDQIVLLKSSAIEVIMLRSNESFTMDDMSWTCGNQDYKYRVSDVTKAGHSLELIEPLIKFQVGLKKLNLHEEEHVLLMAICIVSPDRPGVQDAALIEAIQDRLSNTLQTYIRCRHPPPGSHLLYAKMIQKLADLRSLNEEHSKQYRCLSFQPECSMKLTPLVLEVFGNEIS
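Reagent solutions, kept cold and dark, are dispensed first; compounds are then pinned in at 23 nl, plates briefly spun, and incubated 2 h at ambient temperature. Inhibition of VDR–SRC2-3 peptide binding is read by fluorescence polarization.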
The depositor's hits bear a star; ? = inconclusive; & = joins results of further samples. On the % scale 0 is the no-effect control and ±100 the full control effect; potency means the concentration at half of the fitted maximal effect. Some of the compounds tested, so the mix of outcomes need not match the whole.

mol	VDR inh
N#Cc1ccccc1S(=O)(=O)N1CCN(C(=O)c2ccc(-n3cncn3)c([N+](=O)[O-])c2)CC1	-7%
COc1ccccc1CNS(=O)(=O)c1ccc(-n2cnnn2)c(OC)c1	10%
CCn1c(SCC(=O)Nc2cc(C)on2)nc2c(c1=O)SCC2	-15%
COC(=O)c1cc(NC(=O)CSc2nnc(N)s2)ccc1Cl	1%
CCOc1ccc(C(=O)NC(=S)N(Cc2ccccc2)Cc2ccccc2)cc1	12%
Cc1ccc(N(Cc2cc3ccccc3[nH]c2=O)C(=O)c2ccco2)c(C)c1	14%
CC1Cc2cc(/C(O)=C3\C(=O)C(=O)N(Cc4ccncc4)C3c3ccccc3F)ccc2O1 (stereo not drawn)	-10%
COc1ccc(C(=O)N/C(=C\c2cn(C)c3ccccc23)C(=O)NCCCN2CCOCC2)cc1OC	-14%
COc1cccc(CC(=O)N2CCC(n3nccc3NC(=O)C3CCOC3)CC2)c1 (stereo not drawn)	-4%
COc1ccc(C(=O)Nc2ccc(NC(=O)c3cccs3)cc2)cc1OC	-19%
COc1ccc(CCNC(=O)CN2C(=O)NC3(CCc4ccccc43)C2=O)cc1 (stereo not drawn)	7%
COc1cc(C(=O)NC(C(=O)Nc2cccc(C(C)=O)c2)C(C)C)cc(OC)c1OC (stereo not drawn)	-4%
CC(=O)c1ccc(NC(=O)CC23CC4CC(C2)CC(n2nnc(C)n2)(C4)C3)cc1	4%
Cc1ccc(N(CC(=O)Nc2cc(C)ccc2C)S(C)(=O)=O)cc1	8%
CCCCNc1ncnc2c1cnn2Cc1ccc(Cl)cc1	-7%
O=C(CSc1nnc(-c2ccc3c(c2)OCO3)o1)Oc1ccccc1	15%
Cc1c(NC(=O)c2cc3ccccc3c(=O)s2)c(=O)n(-c2ccccc2)n1C	5%
CC(=O)N1[C@H](C)C=C[C@]1(Cc1ccccc1)C(=O)O	-11%
Cc1c(NC(=S)N/N=C\c2ccccc2O)c(=O)n(-c2ccccc2)n1C	-8%
Cc1sc2ncn(CC(=O)NCC(=O)N3CCN(c4ccc(F)cc4)CC3)c(=O)c2c1C	6%

Arranged by the number under VDR inh (low to high): some entries from above
mol	VDR inh
Cc1c(NC(=S)N/N=C\c2ccccc2O)c(=O)n(-c2ccccc2)n1C	-8%
COc1cc(C(=O)NC(C(=O)Nc2cccc(C(C)=O)c2)C(C)C)cc(OC)c1OC (stereo not drawn)	-4%
Cc1sc2ncn(CC(=O)NCC(=O)N3CCN(c4ccc(F)cc4)CC3)c(=O)c2c1C	6%
O=C(CSc1nnc(-c2ccc3c(c2)OCO3)o1)Oc1ccccc1	15%

Next part
mol	VDR inh
Cc1noc(C)c1Cn1nc(C(=O)O)c2ccccc2c1=O	-7%
Cc1ccc(C(=O)N/N=C/c2ccc(-c3cccc(C(F)(F)F)c3)o2)cn1	-12%
O=C(Cn1ccc(C(F)(F)F)n1)NNC(=O)c1cccnc1	-6%
COc1nc2c(C)cccc2cc1-c1noc(-c2ccco2)n1	14%
CCCCc1nc2n[nH]c(N)c2c2c1CSC(C)(C)C2	-13%
CCN(CC)S(=O)(=O)c1cccc(NC(=O)c2cccc(S(=O)(=O)N3CCCC3)c2)c1	-13%
CCN(CC)CCNC(=O)C(=O)NCC(c1cccnc1)N1CCN(c2ccc(F)cc2)CC1 (stereo not drawn)	15%
CSc1nsc(SCC(=O)N2CCc3ccccc32)n1	9%
CCc1nnc(NC(=O)CCC(=O)Nc2ccc(OC)cc2OC)s1	-7%
COc1ccc(CNC(=O)C(c2ccc(C)cc2)N(Cc2cccs2)C(=O)c2ccc3c(c2)OCCO3)cc1 (stereo not drawn)	21%
Cc1cc(OC(F)F)ccc1NC(=O)Nc1ccc2c(c1)OCO2	-20%
O=C(CCCC(=O)N(CC(=O)NC1CCCC1)c1ccc(F)c(Cl)c1)Nc1ccccn1	-8%
Cc1cc(C)c2c(N)c(C(=O)NCc3ccco3)sc2n1	-5%
O=C(Cn1cnc2nc3c(cc2c1=O)CCCC3)N1CCN(c2ccccc2)CC1	2%
CCOc1cc(Br)c(/C=C2/C(=O)N(C)C(=S)N2CC(=O)OC)cc1OC	-9%
O=C(NC1CCCCC1)c1ccc2c(c1)N(Cc1cccc(F)c1)C(=O)c1ccccc1S2	15%
c1ccc(OCc2nnc3sc(-c4cccs4)nn23)cc1	?
CCO[C@@H]1OC(C(=O)N2CCN(Cc3ccc4c(c3)OCO4)CC2)=C[C@H](c2ccc3c(c2)OCO3)[C@H]1CCCO	?
S=c1nc(C2CCCCC2)[nH]c2ccccc12	-6%
Cc1cccc(C(=O)Nc2c(-c3ccc(F)cc3)nc3ccccn23)c1	7%
COc1ccc(C(OC(=O)c2c(C)noc2C)C(=O)NC2CCCC2)cc1 (stereo not drawn)	-1%
Cc1cc(C)c2oc(C(=O)Nc3c(C(=O)Nc4ccccc4)oc4ccccc34)cc(=O)c2c1	10%
Cc1cc(C)nc(NC(=O)CSc2nnnn2-c2ccccc2)n1	-1%
Cc1cccc(Cl)c1NNC(=O)Nc1c([N+](=O)[O-])c(C)nn1C	-6%
O=C(c1ccccc1)c1nnc(-c2ccccc2F)o1	-11%
Cc1noc(C)c1S(=O)(=O)Nc1ccc(C(=O)N2CCc3ccccc3C2)cc1	2%
COC(=O)CSc1nc2ccc(C)cc2[nH]1	-4%
Cc1ccc(Cl)cc1N1CCN(C(=O)c2cc(S(=O)(=O)N3CCCC3)c[nH]2)CC1	-9%
COc1ccccc1-n1c(SCC(=O)Nc2cccc3ccccc23)nc(O)cc1=O	16%
CC1CCc2c(C(=O)NCCCN3CCOCC3)csc2C1 (stereo not drawn)	6%
CC(=O)C1=C(OC(=O)C(C)C)c2ccccc2S(=O)(=O)N1Cc1ccccc1	6%
Oc1ccc(-c2csc(-c3cccnc3)n2)c(O)c1	0%
O=C(NNc1c(F)c(F)cc(F)c1F)c1ccco1	7%
Cc1c(C(=O)Nc2ccc(OCc3ccccc3)cc2)cccc1[N+](=O)[O-]	-3%
Cc1cccc2cc(C3CC(c4cccs4)=NN3C(=O)CCC(=O)O)c(Cl)nc12 (stereo not drawn)	?
Cc1ccc(C(=O)NC(=S)N2CCN(c3cc(C)ccc3C)CC2)cc1	-14%
Cc1nc2cc(CC(=O)O)ccc2o1	5%
CC(=O)c1cccc(NC(=O)N2CCCC2C(=O)NC2CCCC2)c1 (stereo not drawn)	-13%
O=C(CN1CCCC1)NCC12CC3CC(CC(C3)C1)C2	1%
COc1ccc(Cl)cc1N(C(C)C(=O)O)S(C)(=O)=O (stereo not drawn)	15%
CC(=O)Nc1ccc(-c2cn3ccsc3n2)cc1	4%
CC(=O)Nc1cccc(C(=O)OC(C(=O)c2ccc(C)c(C)c2)c2ccccc2)c1 (stereo not drawn)	14%
NC(=O)C1=C[C@H](c2csc3ccccc23)C[C@H](OCc2ccc(CO)cc2)O1	2%
CC(=O)C(=Nc1ccccc1Cl)NNc1ccc(Cl)cc1	45µM*
C[N+](C)(CCCCCC[N+](C)(C)CCCN1C(=O)c2cccc3cccc(c23)C1=O)CCCN1C(=O)c2cccc3cccc(c23)C1=O	4%&-13%
CCC(=O)Nc1cc(C)c(OC)c(C)c1	-1%
CCc1cc2c3c(c(=O)oc2cc1OC(C)C(=O)O)CCCC3 (stereo not drawn)	?
Cc1ccc(C2=Nc3ccccc3N=C(c3ccco3)C2)c(O)c1	12%
Cc1ccccc1CNC(=O)Cn1c(C)c2cnn(-c3ccccc3)c(=O)c2c1C	11%
O=S(=O)(c1ccc(=S)[nH]c1)N1CCCCCC1	?

The last two records of the section above are carried over, then new ones follow.
mol	VDR inh
Cc1ccccc1CNC(=O)Cn1c(C)c2cnn(-c3ccccc3)c(=O)c2c1C	11%
O=S(=O)(c1ccc(=S)[nH]c1)N1CCCCCC1	?
FC(F)(F)c1cc(-c2ccco2)nc(NCc2ccccc2)n1	-12%
COc1cccc(/C=C2\SC(=S)N(CCC(=O)NNC(=O)c3ccccc3OC)C2=O)c1	-6%
O=C(COC(=O)c1ccc(F)cc1F)Nc1ccc2[nH]c(=O)[nH]c2c1	4%
CCOC(=O)NC(=O)COC(=O)CCCc1nc2ccccc2s1	6%
COc1ccc(C(=O)NCc2cc(C)nc3ccccc23)cc1	1%
COc1ccc(NCc2nn(CC(=O)c3ccc(Br)cc3)c3[n+]2CCCCC3)cc1	-20%
CCOc1ccc(CNC(=O)C2CCN(c3nc4ccccc4nc3C(F)(F)F)CC2)cc1OC	8%
CCOC(=O)c1cc2occc2n1CC(=O)Nc1ccc(OC)cc1OC	-9%
Cc1ccc(CNC(=O)c2ccc3c(c2)nc(C)n3-c2cccc(F)c2)cc1	9%
CN1C(=O)SC(Nc2ccccc2)C1=O (stereo not drawn)	2%
COCCCN1C(=O)C(O)=C(C(C)=O)C1c1cccc(F)c1 (stereo not drawn)	10%
COc1ccc(NC(=O)N(C2CCCCC2)C2CCN(C(C)C)CC2)c(OC)c1	-11%
Cc1cc(C)cc(Cn2ncc(Cl)c(Cl)c2=O)c1	?
COc1cc(/C=N/NC(=O)C(=O)N2CCCC2)ccc1O	-4%
CC(C)C[C@H]1CN=C(N(C)C)N1CCc1cccc(F)c1	-19%
O=c1cc(N2CCN(Cc3ccccc3)CC2)[nH]c(=O)n1-c1cccc(C(F)(F)F)c1	-17%
CCn1c(SCC(=O)Nc2ccc(NC(=O)c3ccco3)c(OC)c2)nc2ccccc2c1=O	3%
COC(=O)c1sccc1NC(=O)C12CC3CC(CC(C3)C1)C2	-9%
O=C(Nc1cccc(NC(=O)c2cccs2)c1)c1ccco1	4%
CCN(Cc1cc2cccc(C)c2[nH]c1=O)C(=O)c1ccccc1OC	16%

Given with each value named: entries from further up.
SMILES: CC(C)C[C@H]1CN=C(N(C)C)N1CCc1cccc(F)c1
  VDR inh: -19%

SMILES: O=c1cc(N2CCN(Cc3ccccc3)CC2)[nH]c(=O)n1-c1cccc(C(F)(F)F)c1
  VDR inh: -17%

SMILES: CCn1c(SCC(=O)Nc2ccc(NC(=O)c3ccco3)c(OC)c2)nc2ccccc2c1=O
  VDR inh: 3%

Next part.
mol	VDR inh
CCc1ccccc1NC(=O)CN1CCN(CC(=O)Nc2cc(C)ccc2OC)CC1	-22%
CN(C)c1ccc(C2/C(=C(/O)c3ccc(Br)cc3)C(=O)C(=O)N2C)cc1 (stereo not drawn)	-15%
Cc1ccc2sc(NC(=O)CSc3nc(C)cc(C)c3C#N)nc2c1	-16%
Cc1ccc2nc(N3CCN(C)CC3)c(C=O)c(=O)n2c1	-15%
Cc1ccc(-c2nc(N)sc2CC(=O)OCC(=O)N2C(C)CCCC2C)cc1 (stereo not drawn)	-7%
COc1ccc(S(=O)(=O)N(CC(=O)N/N=C/c2ccccc2C(=O)O)c2ccccc2OC)cc1	-21%
COc1cc(C2CC(=O)NC(SCC(=O)Nc3ccccc3C)=C2C#N)ccc1O (stereo not drawn)	7%
CC1CC(C)CN(CC(=O)N2CCOCC2)C1 (stereo not drawn)	?
COc1ccc(C(=O)NNC(=O)C23CC4CC(CC(C4)C2)C3)cc1OC	-8%
CCC1Oc2ccccc2N(CC(=O)Nc2ccc3c(c2)OCCO3)C1=O (stereo not drawn)	23%
O=C(CCSCc1ccccc1Cl)NC1CCCC1	-4%
Cn1c(N)c(N2CCN(c3ccccc3)CC2)c(=O)[nH]c1=O	11%
O=C(CCCN1C(=O)c2ccccc2C1=O)NCc1cccnc1	1%
Cc1ccc(SCCC(=O)OCn2nnc3ccccc3c2=O)cc1	-17%
CC1CCCN(C(=O)C2CCN(S(=O)(=O)c3cccs3)CC2)C1 (stereo not drawn)	-15%
Nc1ccc(S(=O)(=O)O)cn1	6%&3%&26%
COc1ccc2c(c1)CCc1c(C(=O)NCc3cccnc3)noc1-2	-11%
COC(=O)C1=C(C(=O)OC)[C@@H]2N(C)c3ccccc3[C@@]23C[C@@H](C(=O)OC)N=C3N1	-15%
CCOc1ccc(-n2c(SCC(N)=O)nc3c([nH]c4ccccc43)c2=O)cc1	-6%
O=C(CCC1CCCC1)NCCS(=O)(=O)N1CCN(c2ccccc2)CC1	6%
CCCc1ccc(C(=O)NNC(=O)c2ccc(Br)cc2)cc1	-6%
Cc1cccc(NC(=O)CCN2C(=O)c3cccc([N+](=O)[O-])c3C2=O)c1	-11%
COc1ccc(N(CC(=O)N2CCCCCC2)S(=O)(=O)c2ccc(OC)c(OC)c2)cc1	-13%
ClCC1=Nc2ccccc2Cc2ccccc21	26%
CCN1CCN(C(=O)c2ccc3c(c2)N(Cc2cccc(Cl)c2)C(=O)c2ccccc2S3(=O)=O)CC1	4%
CCCCOc1ccc(S(=O)(=O)NNC(=O)C2Cc3c(ccc4ccccc34)O2)cc1 (stereo not drawn)	-11%
COc1cccc(/C=N/Nc2snc(SC)c2C#N)c1	-5%
Cc1ccnn1CCC(=O)N1CCCC(Nc2ccc(F)c(F)c2)C1 (stereo not drawn)	-20%
O=C(CN1CCN(Cc2ccc(F)cc2)C1=O)NCc1ccccc1	9%
